Assay outcomes: PubChem, Broad Institute
Vaccinia inh – Vaccinia orthopox stage-specific inhibition; Vaccinia-infected cells, mCherry/Venus stage reporter fluorescence; active compounds read low; some inactives read as strong as hits; activity change (mCherry), % (concentration not given with the values); 89,000 tested, 0.01% active;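 active = mCherry past -33% and 40 or more points under the early reporter, replicates agreeing; inconclusive = past -33% without that gap or agreement; tested in A549 cells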;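 also: scaled between vehicle wells and reference inhibitor wells; 23 nL library stock went into each well; one replicate is shown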
Vaccinia inh Venus – also measured in Vaccinia inh; calls as there; activity change (Venus), %; measured here: Venus reporter, other viral stage;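 negative = less Venus signal; first of two replicates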
Starred values were filed as active, the others as inactive; ? = inconclusive; nt = no result given; & = joins results of further samples. Some of the compounds tested, so the mix of outcomes need not match the whole.

A first look:
Sequence of screens – Vaccinia inh, Vaccinia inh Venus
> C[C@H](CO)N1C[C@H](C)[C@H](CN(C)S(=O)(=O)c2ccc(F)cc2)Oc2ncc(-c3ccncc3)cc2C1=O
  0, -9
> CCNC(=O)[C@H]1[C@H](CO)[C@H]2Cn3c(ccc(-c4ccc(F)cc4)c3=O)[C@@H]1N2C(C)=O
  1, 1
> O=C(NCC[C@@H]1CC[C@@H](NS(=O)(=O)c2ccc(Cl)cc2)[C@@H](CO)O1)Nc1ccc(F)cc1
  -2, -4

The listing, from the start:
Sequence of screens – Vaccinia inh, Vaccinia inh Venus
> C[C@H](CO)N1C[C@H](C)[C@H](CN(C)S(=O)(=O)c2ccc(F)cc2)Oc2ncc(-c3ccncc3)cc2C1=O
  0, -9
> CCNC(=O)[C@H]1[C@H](CO)[C@H]2Cn3c(ccc(-c4ccc(F)cc4)c3=O)[C@@H]1N2C(C)=O
  1, 1
> O=C(NCC[C@@H]1CC[C@@H](NS(=O)(=O)c2ccc(Cl)cc2)[C@@H](CO)O1)Nc1ccc(F)cc1
  -2, -4
> CN(C)CC(=O)Nc1ccc2c(c1)[C@H]1C[C@H](CC(=O)NCc3ccncc3)O[C@@H](CO)[C@H]1O2
  12, 4
> CCCc1cn(CC[C@H]2CC[C@H](NC(=O)Nc3ccccc3F)[C@H](CO)O2)nn1
  -4, -6
> CN(C)C(=O)c1cccc(-c2ccccc2[C@H]2[C@@H](C#N)N(C(=O)C3CCCC3)[C@@H]2CO)c1
  -1, -4
> C[C@H]1CN([C@@H](C)CO)C(=O)c2cc(C3=CCCCC3)cnc2O[C@@H]1CN(C)C(=O)Cc1cccnc1
  14, 5
> CN1C(=O)c2cc(NC(=O)c3ccccc3)ccc2OC[C@@H]2O[C@H](CC(=O)NCC3CC3)CC[C@@H]21
  -6, -4
> COc1ccc2c3c([nH]c2c1)[C@@H](CO)N(Cc1ccccc1OC)CC31CN(C(C)=O)C1
  2, 5
> COc1cccc(CN(C)C[C@H]2OCc3ccccc3-c3c(n(C)c4ccccc34)C(=O)N([C@@H](C)CO)C[C@H]2C)c1
  ?, nt
> O=C(NCC[C@@H]1CC[C@@H](NS(=O)(=O)c2ccc(F)cc2)[C@H](CO)O1)Nc1ccc(Cl)cc1
  -23, -22
> O=C(Nc1ccc2c(c1)OCO2)N[C@H]1CC[C@H](CC(=O)N2CCN(c3ccccc3)CC2)O[C@@H]1CO
  -8, -3
> O=C(C[C@@H]1CC[C@@H]2[C@H](COC[C@H](O)CN2C(=O)Nc2ccc(F)cc2)O1)NCC1CC1
  -12, -13
> COc1ccc(S(=O)(=O)Nc2cccc3c2O[C@@H](CN(C)S(C)(=O)=O)[C@@H](C)CN([C@@H](C)CO)C3=O)cc1
  4, 22
> Cc1noc(C)c1NC(=O)Nc1ccc2c(c1)C(=O)N([C@H](C)CO)C[C@H](C)[C@@H](CN(C)C(=O)Nc1ccc(F)cc1)OCCCC[C@@H](C)O2
  10, 0
> COc1ccc(NC(=O)Nc2cccc3c2O[C@H](CN(C)C(=O)NC2CCCCC2)[C@H](C)CN([C@H](C)CO)C3=O)cc1
  -4, 0
> COc1ccc(NC(=O)Nc2ccc3c(c2)CC(=O)N([C@@H](C)CO)C[C@H](C)[C@H](CN(C)S(C)(=O)=O)O3)cc1
  11, -3
> O=C1CN(S(=O)(=O)Cc2ccccc2)C[C@@H]2[C@@H](c3ccc(C#Cc4ccccc4)cc3)[C@H](CO)N12
  ?, nt
> CO[C@@H]1CC[C@H]2CCN(C)C(=O)[C@H](C)N(C)C(=O)c3cc(C#N)ccc3OC[C@@H]1O2
  1, -8
> O=S(=O)(N[C@H]1CC[C@@H](CCn2cc(-c3cccc(F)c3)nn2)O[C@H]1CO)c1ccc(Cl)cc1
  -33, -23
> COc1ccc(C#Cc2ccc([C@H]3[C@H](CO)N4CCCCN(C(=O)Cc5ccncc5)C[C@@H]34)cc2)cc1
  0, -12
> CO[C@H](CN(C)S(=O)(=O)c1cn(C)cn1)[C@@H](C)CN(C(=O)Nc1ccc(F)cc1)[C@H](C)CO
  7, 6
> C/C=C/c1ccc2c(c1)O[C@@H](CN(C)C(=O)NC1CCCCC1)[C@@H](C)CN([C@@H](C)CO)S2(=O)=O
  -11, -13
> O=C(C[C@H]1CC[C@@H](NS(=O)(=O)c2cccc(F)c2)[C@@H](CO)O1)N1CCCCC1
  14, 3
> COCC#Cc1ccc2c(c1)O[C@@H](CN(C)Cc1ccncc1)[C@H](C)CN([C@H](C)CO)S2(=O)=O
  -3, -4
> OC[C@@H]1Nc2ccc(C#Cc3cccc(F)c3)cc2[C@@H]2NCC[C@H]12
  ?, nt
> C[C@@H]1CN([C@H](C)CO)C(=O)c2cc(-c3ccc(C#N)cc3)cnc2O[C@@H]1CN(C)Cc1cncnc1
  20, 14
> COc1ccc2c3c(n(C)c2c1)[C@H](CO)N(C(=O)c1cnccn1)CC31CN(C(C)=O)C1
  16, 4
> O=C(O)C[C@H]1C=C[C@H](NC(=O)Nc2cc(F)ccc2F)[C@@H](CO)O1
  -4, -3
> CCCNC(=O)N(C)C[C@@H]1Oc2cc(C3=CCCC3)ccc2S(=O)(=O)N([C@H](C)CO)C[C@@H]1C
  0, -3

The final 3 records of the part before are carried over, then new ones follow.
Sequence of screens – Vaccinia inh, Vaccinia inh Venus
> COc1ccc2c3c(n(C)c2c1)[C@H](CO)N(C(=O)c1cnccn1)CC31CN(C(C)=O)C1
  16, 4
> O=C(O)C[C@H]1C=C[C@H](NC(=O)Nc2cc(F)ccc2F)[C@@H](CO)O1
  -4, -3
> CCCNC(=O)N(C)C[C@@H]1Oc2cc(C3=CCCC3)ccc2S(=O)(=O)N([C@H](C)CO)C[C@@H]1C
  0, -3
> O=C(CCN1CCCCC1)NCC[C@@H]1CC[C@@H](NC(=O)C2CCCC2)[C@H](CO)O1
  11, 7
> O=C(N[C@@H]1CC[C@H](CCn2cc(C3(O)CCCC3)nn2)O[C@@H]1CO)C1CCC1
  -6, 0
> C[C@@H]1CN([C@@H](C)CO)C(=O)c2cc(NC(=O)CCCN(C)C)ccc2O[C@@H](C)CCCCO[C@@H]1CN(C)C(=O)Nc1ccc2c(c1)OCO2
  19, 10
> COc1ccc(NC(=O)N(C)C[C@@H]2Oc3c(NC(=O)Nc4c(C)noc4C)cccc3C(=O)N([C@@H](C)CO)C[C@@H]2C)cc1
  -4, 5
> O=C(C1CCOCC1)N1C[C@H]2[C@@H](c3ccccc31)[C@H](CO)N2C(=O)Cc1ccccn1
  -4, 3
> C[C@@H]1CN([C@H](C)CO)C(=O)Cc2cc(N(C)C)ccc2O[C@H]1CN(C)Cc1ccc2c(c1)OCO2
  14, 17
> CO[C@@H]1CN(C)C(=O)c2cc(NC(=O)C3CCCCC3)ccc2OC[C@H](C)N(C(=O)c2ccccc2)C[C@H]1C
  19, 16
> CC=Cc1ccc2n(c1=O)C[C@H]1[C@H](CO)[C@@H](C(=O)N(C)C)N(CC3CCCCC3)[C@@H]21 (mixture of isomers)
  0, 1
> COc1ccc2c3c(n(C)c2c1)[C@@H](CO)N(C(C)=O)CC31CN(S(=O)(=O)c2ccccc2)C1
  -32, -22
> C[C@@H]1CN([C@H](C)CO)C(=O)c2cc(NC(=O)Nc3ccc(C(F)(F)F)cc3)ccc2O[C@H]1CN(C)C(=O)Nc1ccc2c(c1)OCO2
  19, 8
> C[C@@H]1CCCCO[C@H](CN(C)CC2CCCCC2)[C@H](C)CN([C@@H](C)CO)C(=O)c2cc(NS(C)(=O)=O)ccc2O1
  -7, -9
> COCCNC(=O)[C@H]1[C@H](CO)[C@H]2Cn3c(ccc(-c4ccc(OC)cc4)c3=O)[C@@H]1N2C(=O)NC(C)C
  10, 8
> CC(C)NC(=O)N(C)C[C@@H]1OCCCC[C@H](C)Oc2ccc(NS(=O)(=O)c3cn(C)cn3)cc2C(=O)N([C@@H](C)CO)C[C@@H]1C
  10, 1
> Cc1ccc(-c2cnc3c(c2)C(=O)N([C@@H](C)CO)C[C@@H](C)[C@@H](CN(C)C(=O)c2ccccc2)O3)cc1
  -5, -8
> C/C=C/c1ccc([C@H]2[C@@H](CO)N[C@@H]2CNC(=O)Cc2ccccc2)cc1
  -18, -10
> COc1ccccc1-c1ccc([C@H]2[C@@H](C#N)N(C(=O)C3CC3)[C@H]2CO)cc1
  -7, 0
> C[C@@H]1CN([C@@H](C)CO)C(=O)Cc2cc(NC(=O)Nc3ccc(F)cc3)ccc2O[C@H]1CN(C)S(=O)(=O)c1ccc(F)cc1
  16, 14
> CN(C)C(=O)C[C@H]1CC[C@@H]2[C@H](COC[C@H](O)CN2CC2CCOCC2)O1
  2, 9
> Cc1nn(C)cc1NC(=O)C[C@@H]1CC[C@H]2[C@@H](COc3ccc(NC(=O)NC(C)C)cc3C(=O)N2C)O1
  -1, 6
> O=C(Nc1ccc(F)cc1)N[C@@H]1C=C[C@@H](CC(=O)N2CCCCC2)O[C@@H]1CO
  -9, -8
> C[C@H](C(=O)N(C)C[C@@H]1OCc2ccccc2-c2c(n(C)c3ccccc23)C(=O)N([C@H](C)CO)C[C@H]1C)c1ccccc1
  ?, nt
> COCC(=O)Nc1ccc2c(c1)OC[C@@H](C)N(C(=O)NC(C)C)C[C@@H](C)[C@H](OC)CN(C)C2=O
  3, 7
> CC(C)OC(=O)N(C)C[C@@H]1OCc2cnnn2CCCC(=O)N([C@@H](C)CO)C[C@@H]1C
  4&3, -3&6
> Cc1noc(C)c1S(=O)(=O)N(C)C[C@H]1Oc2ccc(NC(=O)C3CC3)cc2CC(=O)N([C@@H](C)CO)C[C@@H]1C
  19, 8
> CCCN1[C@@H]2c3ccc(C4=CCCC4)c(=O)n3C[C@H]1[C@H](CO)[C@H]2C(=O)NCCOC
  -7, 1
> O=C(C[C@@H]1CC[C@H](NC(=O)Cc2ccccn2)[C@H](CO)O1)NCCc1ccncc1
  -12, -6
> C[C@@H]1CCCCO[C@H](CN(C)C(=O)Nc2ccc3c(c2)OCO3)[C@@H](C)CN([C@H](C)CO)C(=O)c2cc(NS(=O)(=O)c3cn(C)cn3)ccc2O1
  17, 8
> C[C@H]1CN([C@@H](C)CO)C(=O)Cc2cc(NC(=O)C3CC3)ccc2O[C@@H]1CN(C)Cc1ccc(Cl)c(Cl)c1
  ?, nt
> C[C@@H]1CCCCO[C@@H](CN(C)C(=O)Cc2ccccc2)[C@@H](C)CN([C@@H](C)CO)C(=O)c2cc(NC(=O)CCCN(C)C)ccc2O1
  18, 9
> COc1ccc2c3c(n(C)c2c1)[C@@H](CO)NCC31CN(C(=O)Nc2ccc3c(c2)OCO3)C1
  11, 8

Record cards (already shown).
Record of C[C@H](C(=O)N(C)C[C@@H]1OCc2ccccc2-c2c(n(C)c3ccccc23)C(=O)N([C@H](C)CO)C[C@H]1C)c1ccccc1 → Vaccinia inh = ?; Vaccinia inh Venus = nt
Record of Cc1noc(C)c1S(=O)(=O)N(C)C[C@H]1Oc2ccc(NC(=O)C3CC3)cc2CC(=O)N([C@@H](C)CO)C[C@@H]1C → Vaccinia inh = 19; Vaccinia inh Venus = 8

Remaining list, next part:
Sequence of screens – Vaccinia inh, Vaccinia inh Venus
> CN(C)CCCNC(=O)C[C@H]1C=C[C@H](NC(=O)c2ccccc2F)[C@H](CO)O1
  7, 7
> CCC(=O)N1C[C@H](C)[C@H](OC)CN(C)C(=O)c2ccc(NC(=O)Nc3ccccc3)cc2OC[C@@H]1C
  -7, 2
> CCCC#Cc1cnc2c(c1)C(=O)N([C@H](C)CO)C[C@@H](C)[C@H](CN(C)Cc1ccc(F)cc1)O2
  -15, -10
> N#C[C@@H]1[C@@H](c2ccc(-c3ccccc3)cc2)[C@@H](CO)N1C(=O)Cc1ccncc1
  7, 13
> O=C(C[C@@H]1CC[C@H]2[C@@H](COC[C@H](O)CN2C(=O)Nc2ccc(Cl)cc2)O1)NCC1CC1
  -2, 2
> CCC(=O)Nc1ccc2c(c1)OC[C@H](C)N(Cc1ccncc1)C[C@H](C)[C@@H](OC)CN(C)C2=O
  14, 9
> O=C(C[C@@H]1C[C@H]2c3cc(NC(=O)CC4CC4)ccc3O[C@H]2[C@@H](CO)O1)NCc1cccnc1
  4, 3
> Cc1ccc(S(=O)(=O)Nc2ccc3c(c2)C(=O)N([C@@H](C)CO)C[C@H](C)[C@H](CN(C)S(=O)(=O)c2ccccc2)OCCCC[C@@H](C)O3)cc1
  1, 8
> C[C@H](CO)N1C[C@H](C)[C@@H](CN(C)C(=O)Nc2ccccc2)Oc2ccc(NC(=O)Nc3ccc(C(F)(F)F)cc3)cc2C1=O
  -3, -5
> O=C(N[C@H]1CC[C@@H](CCn2cc(C3CCCC3)nn2)O[C@H]1CO)c1cccnc1
  15, 9
> C[C@@H]1CN([C@@H](C)CO)C(=O)Cc2cc(NC(=O)Nc3ccc(C(F)(F)F)cc3)ccc2O[C@H]1CN(C)C(=O)Nc1ccc2c(c1)OCO2
  -8, -4
> COc1ccc(S(=O)(=O)Nc2ccc3c(c2)C(=O)N([C@@H](C)CO)C[C@@H](C)[C@@H](CN(C)Cc2ccc(Cl)c(Cl)c2)OCCCC[C@@H](C)O3)cc1
  ?, nt
> CNC[C@H]1OCCCC[C@@H](C)Oc2ccc(NC(=O)Nc3cccc4ccccc34)cc2C(=O)N([C@H](C)CO)C[C@@H]1C
  13, 13
> CCO[C@@H]1OC(C(=O)N2CCN(Cc3ccc4c(c3)OCO4)CC2)=C[C@H](c2cn(C(C)=O)c3ccccc23)[C@H]1CCCO
  ?, nt
